ClpP mod: qHTS Assay for Activators of ClpP. ATP-dependent Clp protease proteolytic subunit (Bacillus subtilis (strain 168)), P80244. purified B. subtilis ClpP, FRET peptide cleavage, 20 min. Potency, µM (series often up to 57.5 µM), for the others: at the highest dose activity change, negative = active. hit rate 1.9% among 340,000; active = well fitted falling curve with a large enough effect; inconclusive = small, poorly fitted or top-dose-only effect; inactive = no such curve, though single readings can be large or run the other way; also: potency is read from the fitted curve at half-maximal effect; the source files actives as falling curves though it sought activators and does not explain the sign; nearly all actives have a fitted effect of over 65% in size; many hits overshoot -100%
Target sequence (P80244 whole entry, looked up): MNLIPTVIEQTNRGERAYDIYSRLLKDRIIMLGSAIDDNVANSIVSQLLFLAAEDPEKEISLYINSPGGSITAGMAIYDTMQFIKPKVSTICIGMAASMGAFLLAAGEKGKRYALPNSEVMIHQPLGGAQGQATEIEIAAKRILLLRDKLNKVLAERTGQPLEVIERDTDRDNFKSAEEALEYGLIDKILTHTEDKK
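Purified B. subtilis ClpP, 10 microg/mL final in Tris/HCl pH8 with KCl, BSA, glycerol and Tween-20, cleaved an Abz/nitrotyrosine-quenched decapeptide. Fluorescence (ex 320, em 430) was read at 0 and 20 min at room temperature. Delta was normalized to 5.8 microM ADEP and DMSO/no-enzyme controls.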
TRPML1 blocker: human mucolipin-1 channel inhibition; Q9GZU1; AID 624415; hit rate 0.02% among 390,000; activity change, negative = inhibition, % (test concentration not listed); TRPML1-inducible cells, Ca2+ dye fluorescence, FDSS; stronger effect = lower value; inhibition of EC80 agonist-evoked calcium signal; in the data active means activity change below about -50%; inconclusive means about -30% to -50%; inactive means above about -30%;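 also: stimulus is agonist 54-4 at its EC80 concentration; % is scaled to controls: 0 for no effect and ±100 for the full control effect; compound concentration not given in the record; the text of the record puts the active cut at -80%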
Target sequence (Q9GZU1 whole entry, looked up): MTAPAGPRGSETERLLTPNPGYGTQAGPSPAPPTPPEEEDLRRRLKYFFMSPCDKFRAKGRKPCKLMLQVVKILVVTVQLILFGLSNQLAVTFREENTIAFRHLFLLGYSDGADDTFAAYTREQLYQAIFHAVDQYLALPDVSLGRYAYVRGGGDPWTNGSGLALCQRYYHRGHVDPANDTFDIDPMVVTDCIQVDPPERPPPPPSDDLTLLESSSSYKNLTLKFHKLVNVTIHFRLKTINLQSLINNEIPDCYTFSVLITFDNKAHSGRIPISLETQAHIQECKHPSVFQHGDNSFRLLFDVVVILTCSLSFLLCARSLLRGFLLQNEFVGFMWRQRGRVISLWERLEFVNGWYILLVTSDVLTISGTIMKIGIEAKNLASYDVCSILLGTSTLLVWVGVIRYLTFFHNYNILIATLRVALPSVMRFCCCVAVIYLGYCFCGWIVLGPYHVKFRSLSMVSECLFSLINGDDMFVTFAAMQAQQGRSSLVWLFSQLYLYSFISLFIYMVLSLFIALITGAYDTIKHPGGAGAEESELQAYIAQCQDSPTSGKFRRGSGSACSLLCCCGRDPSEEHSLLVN
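Tet-induced TRPML1-DL cells loaded with Ca8 no-wash calcium dye were read kinetically on FDSS. Compound addition was followed by EC80 agonist 54-4 (4 uM final); inhibition was read over 110 s.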
PINK1 expr mod: modulators of PINK1 expression; hit rate 0.2% among 410,000; PINK1 immunofluorescence, high-content cytometry, 24 h; AID 624263; Potency, µM (doses to about 76.6 µM), for inactives: top-dose activation (PINK1 increase), hits mostly activators; active = well fitted activation curve with a large enough effect; inconclusive = small, poorly fitted or top-dose-only effect; inactive = flat fitted curve, though single readings scatter; cell line not stated here;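 also: potency is read from the fitted curve at half-maximal effect; % of control where 0% means no effect; nearly all actives have a fitted effect of over 65% in size; a mitochondrial uncoupler was the plate control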
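Stable cell line treated 24 h with compounds at 5 concentrations (CCCP controls), then fixed and immunostained for PINK1 plus nuclear and cell stains; PINK1 immunofluorescence quantified by laser-scanning microplate cytometry.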
Menin MLL FP FL: displaces fluorescein MLL peptide from human menin; FP activity change, % at 61.4 µM; 290,000 tested, under 10 active; Fluorescence polarization, fluorescein-MLL peptide displacement from menin; inconclusive = falling polarisation curve, or a change in total fluorescence; inactive = total fluorescence flat and polarisation flat or rising; no compound was filed as active; the % refers to the polarisation; negative = inhibition;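 also: % of control where 0% means no effect; inhibitors lower the polarisation; unlabelled MLL peptide was the positive control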
TRPML1 ag: human mucolipin-1 channel agonism; hit rate 0.12% among 410,000; TRPML1-expressing cells, Ca2+ dye fluorescence, FDSS; host cell line not named in the record; reference of the full effect not given here; activation, % (concentration not given with the values); Q9GZU1; in the data active = activation above about 50%; inconclusive = about 30% to 50%; inactive = below about 30%; also: 0% is about no effect; the text of the record puts the active cut at 80%
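Tetracycline-induced TRPML1-DL cells are seeded and incubated overnight before loading with a no-wash Ca2+ dye and quencher. Agonist activity is taken from the 110 s fluorescence read following compound pin-transfer on an FDSS, before EC80 54-4 challenge.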
TRPV1 PAM: enhances activation of the human vanilloid receptor TRPV1; hit rate 0.02% among 320,000; Q8NER1; TRPV1-expressing cells, Fluo-8 calcium influx, capsaicin EC20 potentiation; host cell line not named in the record; control for the full effect not named in the record; potentiation, % at 8.33 µM; active means potentiation above 80%; inconclusive means 30% to 80%; inactive means below 30%; also: 0% is about no effect
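Cells expressing TRPV1 were dye-loaded with Fluo-8 and read kinetically: 10 s baseline, 3 min after compound (agonist portion), then 2 min after EC20 capsaicin (allosteric enhancer portion). Calcium-bound dye fluorescence at 480/520 nm.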
Sfp PPTase inh: inhibitors of Bacillus subtilis Sfp phosphopantetheinyl transferase; AID 1490; hit rate 3.5% among 310,000; Q9F4F7; Biochemical Sfp PPTase activity, qHTS; Potency, µM, inactives show max response, negative = inhibition, hits mostly inhibitors; active = well fitted inhibition curve with a large enough effect; inconclusive = small, poorly fitted or top-dose-only effect, or another doubt; inactive = no such curve, though single readings can be large or run the other way;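 also: the enzyme is Sfp with the accession as filed and its product quenches rhodamine fluorescence; potency is read from the fitted curve at half-maximal effect; 0% = enzyme reaction without inhibitor and -100% = no enzyme wells; top concentration of the series not given in the record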
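Compounds were incubated with enzyme (final 15 nM) for 15 min at room temperature before substrate addition started the reaction. Fluorescence at 525 nm excitation, 598 nm emission was recorded immediately and after 30 minutes.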
Active calls of the source: *; ? = inconclusive; · = no result given; [ ] = remark or other dose. A portion of the library (hit frequency here may not be typical).

SMILES	ClpP mod	TRPML1 blocker	PINK1 expr mod	Menin MLL FP FL	TRPML1 ag	TRPV1 PAM	Sfp PPTase inh
Cn1cccc1/C=C1\C(=O)NC(=O)N(Cc2ccco2)C1=O	2.5%	9	1.6%	?	-0.2	2	-20%
COC(=O)C1=C(c2ccc3ccccc3c2)C[C@@H]2CC[C@H]1N2C(=O)NCCCOC(C)C	-1.2%	7	0.4%	·	0.6	3	·
O=C(Cc1ccccc1F)N1CCN(CC(=O)N2CCCC2)CC1	0.1%	12	-0.5%	·	-0.2	·	·
COC(=O)C1=C(c2ccc(F)cc2OCc2ccccc2)C[C@@H]2CC[C@H]1N2C(=O)NCc1cccc(OC)c1	-2.8%	28	-1.0%	·	1.5	-1	·
COc1cc(C2SCC(=O)Nc3c2c(C)nn3-c2ccccc2)cc(OC)c1OC (stereo not drawn)	0.1%	10	0.8%	0.1	0.1	24	2%
Cc1ccc2c(c1)C(c1ccccc1)NCC(=O)N2 (stereo not drawn)	0.8%	-2	-0.7%	0.4	-0.5	-1	26%
Oc1ccc(Cl)cc1Sc1cc(Cl)ccc1O	·	5	?	2.0	0.7	·	19%
CN1CCCN(c2ccc([N+](=O)[O-])nc2)CC1	·	53	1.6%	0.1	0.7	5	4%
CC(=O)OC1CCC2(/C=N/O)C(=CCC3C4CCC(=O)C4(C)CCC32)C1 (stereo not drawn)	0.3%	-24	-1.2%	-4.3	-0.9	11	6%
COc1ccc(CCNCc2ccc(C)s2)cc1OC	·	10	0.1%	-1.1	0.1	25	11%
Cc1nn(C)c(C)c1/C=C1/CC2C3CC=C4CC(O)CCC4(C)C3CCC2(C)C1=O (stereo not drawn)	-0.6%	15	1.6%	1.1	-0.5	-2	5%
CCCCCn1c(=O)c(C(=O)Nc2cnccn2)c(O)c2ccccc21	·	13	1.3%	-0.7	-0.9	5	16%
O=C(Cc1ccccc1)OCC(=O)c1ccc(F)cc1	-1.0%	14	-0.6%	·	0.9	·	·
CCCCn1c(O)c(C(=O)/C=C/c2ccc3c(c2)OCO3)c(=O)[nH]c1=O	·	0	-1.4%	24	1.6	4	-3%
CN(C)C1C(=O)C(C(N)=O)=C(O)C2(O)C(=O)C3=C(O)c4c(O)cccc4C(C)(O)C3C(O)C12 (stereo not drawn)	-4.4%	13	1.8%	16	-0.3	?	56µM*

An excerpt of these results, with two lines to a compound:
Fields – ClpP mod | TRPML1 blocker | PINK1 expr mod | Menin MLL FP FL | TRPML1 ag | TRPV1 PAM | Sfp PPTase inh
CCCCn1c(O)c(C(=O)/C=C/c2ccc3c(c2)OCO3)c(=O)[nH]c1=O
    · | 0 | -1.4% | 24 | 1.6 | 4 | -3%
O=C(Cc1ccccc1)OCC(=O)c1ccc(F)cc1
    -1.0% | 14 | -0.6% | · | 0.9 | · | ·

Further records follow:
SMILES	ClpP mod	TRPML1 blocker	PINK1 expr mod	Menin MLL FP FL	TRPML1 ag	TRPV1 PAM	Sfp PPTase inh
CCOC(=O)C(NC(=O)CCl)(Nc1ccc(C(O)(C(=O)OCC)C(F)(F)F)cc1)C(F)(F)F (stereo not drawn)	-0.9%	7	1.3%	8.9	0.2	2	9%
CCOC(=O)[C@]12Cc3cc(C)ccc3[C@H]1N(C1CCCCC1)C(=O)c1cc(OC)ccc12	-1.4%	·	-0.9%	·	1.5	·	·
CCCCOc1ccc(CC2C(=O)N(C)C(=O)N(C)C2=O)cc1	-3.4%	-26	0.3%	1.5	-0.2	-18	?
CCOC(=O)C1(CCOc2ccccc2)CCN(Cc2ccc(C)s2)CC1	-0.8%	0	?	2.7	1.2	-3	2%
Cc1ccccc1C1=NCC(=O)N(CC(=O)N2CCCCC2)c2sc(C)c(C)c21	0.0%	-14	2.5%	-0.8	-1.1	-2	-3%
Cc1nc2ccccc2c(=O)n1/N=C/c1cc(Br)cc(Br)c1O	·	0	3.1%	·	0.9	·	·
C=CCn1c(O)c(C=Nc2ccc(OC)cc2C)c(=O)[nH]c1=O	-0.2%	10	0.9%	-1.0	0.9	-9	7%
CN(C)S(=O)(=O)c1cc(C(=O)N2CCC(C(=O)O)(c3ccccc3)CC2)ccc1Cl	·	-7	1.1%	-3.9	0.2	1	8%
NP(=O)(OCC(F)(F)F)Oc1cccc2ccccc12 (stereo not drawn)	-0.7%	2	1.6%	3.7	-0.2	3	6%
Cc1cccc(-n2nc(C)c3c2NC(=O)CSC3c2ccccc2Cl)c1 (stereo not drawn)	-3.7%	-6	0.6%	·	2.3	·	·
CN1CCC(N(C)c2ncnc3ccc(Br)cc23)CC1	-1.2%	5	-2.8%	3.6	-0.6	2	10%
COC(=O)C1=C(c2cc3ccccc3o2)C[C@@H]2CC[C@H]1N2C(=O)NCc1ccc(F)cc1	-0.9%	-10	0.3%	·	0.9	·	·
NC(=O)c1ccc(OCCC(O)N2CC=C(c3ccc(F)cc3)CC2)cc1 (stereo not drawn)	-1.5%	6	1.2%	·	0.2	-1	·
COC(=O)C1=C(c2cccc(NC(C)=O)c2)C[C@@H]2CC[C@H]1N2C	2.1%	5	0.6%	·	-0.8	6	·
Cc1c(C(=O)N2CCC3(CC2)OCCO3)oc2ccc(S(=O)(=O)N3CCCCC3)cc12	2.7%	16	3.2%	-0.1	-0.4	-22	16%
COCc1cc(C2SCC(=O)Nc3c2c(=O)[nH]n3C(C)C)ccc1OC (stereo not drawn)	0.2%	-10	0.5%	-4.5	-0.1	-3	4%
Cc1cc(=O)[nH]c(SCc2nc3ccccc3c(=O)n2-c2ccccc2C)n1	·	10	-0.6%	-1.4	2.4	-31	-6%
O=C(COc1ccc(Cl)cc1)N1CCN(C/C=C/c2ccccc2)CC1	-0.9%	1	-0.8%	3.2	-0.6	8	1%
CC1(C)NC(=S)C(C)(C)N1N=O	·	4	-2.7%	·	0.9	·	·
COc1cccc(-n2c(C)nc3ccccc3c2=O)c1	-3.6%	4	1.0%	-1.6	2.5	-13	6%
CCOc1ccc(N2C(=O)CC(=O)NC2=O)cc1	0.6%	22	0.1%	5.3	0.1	17	3%
Cc1ccccc1-c1ccc2c(c1)C1c3c(-c4ccccc4)nnn3-c3ccccc3C(=O)N1CC2 (stereo not drawn)	-6.0%	·	0.8%	·	0.3	·	·
O=c1c2ccccc2nc(-c2ccccc2)n1-c1cccc(O)c1	·	-5	0.4%	-9.8	0.5	-14	-4%
C[C@H]1CC[C@@]2(C)[C@@H](CC[C@@H]3[C@@H]2CC[C@]2(C)[C@@H](O)CC[C@@H]32)C1	-1.4%	·	?	-0.6	·	8	-7%
O=C(N/N=C/c1c(O)n(C2CCCCC2)c(=S)[nH]c1=O)c1ccccc1	-0.1%	-25	3.9%	6.6	-1.0	7	26%
CC(C)(C)c1cc([N+](=O)[O-])cc(C(C)(C)C)c1O	2.6%	4	5µM*	6.8	6.6	4	2%
Nc1ccccc1C(=O)c1ccccc1	0.0%	-11	5.6%	2.6	0.6	-9	15%
S=C(NCCc1ccccc1)N1Cc2cc(-c3ccccc3)ccc2-n2nncc2C1	-1.7%	·	-0.1%	·	-0.3	·	·
N/C(=N\[N+](=O)[O-])N1CCN(C(=O)Oc2ccccc2)CC1	-1.9%	-3	-1.1%	0.0	0.1	-3	10%
O=C(O)CCn1cc(C=C2C(=O)NC(=O)NC2=O)c(-c2cc3ccccc3oc2=O)n1	·	3	2.5%	-3.1	0.5	?	40µM*
C=CCN1C(=O)NC(=O)/C(=C/c2cccn2C)C1=O	0.4%	5	1.9%	1.4	0.3	-9	-28%
O=C(Cc1ccccc1)N1CCN(Cc2cccc(Br)c2)CC1	-0.3%	·	-0.1%	1.7	·	-33	50µM*
O=C(C(Cc1ccccc1)NS(=O)(=O)c1cccc2nsnc12)N1CCC2(CC1)OCCO2 (stereo not drawn)	0.1%	-4	-1.3%	-5.4	-0.3	7	10%
Cc1ccc(Cl)cc1N1CCN(C(=O)c2cn(CC(C)C)c(=O)c3c2c2ccccc2n3C)CC1	13µM*	20	2.4%	·	0.8	·	·
CCCc1c(C)nc(SCC(=O)C(C)(C)C)nc1OC(=O)N(C)C	-0.6%	4	1.2%	0.0	0.5	0	16%
O=c1[nH]c(O)c(N=Nc2ccc(SC(F)F)cc2)c(=O)[nH]1	1.3%	·	0.3%	-8.0	·	-1	21%
O=C1Nc2ccc(Br)cc2C(c2ccc(Cl)cc2)=NC1O (stereo not drawn)	0.4%	34	4.3%	11	1.6	9	-2%
O=C1NCN(c2ccccc2)C12CCN(C(CCc1ccccc1)c1nnnn1C1CCCCC1)CC2 (stereo not drawn)	-2.9%	·	2.4%	·	-0.5	·	·
O=C(Cn1c(=O)c(C(F)(F)F)nc2ccccc21)N1CCC2(CC1)OCCO2	-26%	-17	8.5%[38.3 µM]	-10	1.2	2	-7%
CN1CCc2c(c(N3CCCCC3)nc3n[nH]c(N)c23)C1	-3.7%	-5	2.1%[38.3 µM]	0.5	-0.3	-6	7%
C#CCOc1cc(C2C3=C(COC3=O)Nc3cc4c(cc32)OCO4)ccc1OC (stereo not drawn)	-6.0%	10	12%	-3.3	1.1	5	25%
CCOc1ccc(C2CC(c3c(O)n(C)c(=O)n(C)c3=O)=NN2)cc1 (stereo not drawn)	·	27	0.1%	4.1	0.5	-2	-7%
CN1C(=O)C(=Cc2cn(CC#N)c3ccccc23)C(=O)N(C)C1=O	·	2	0.2%	9.5	-1.1	0	-8%
COC(=O)C1=C(c2ccc3ccccc3c2)C[C@@H]2CC[C@H]1N2C(=O)NCC1CC1	-0.3%	8	1.2%	·	0.3	10	·
CCC(/C=C/C(C)C1CCC2C3CC=C4CC(O)CC[C@@]4(C)C3CC[C@@]12C)C(C)C (stereo partly drawn)	·	·	0.8%	-2.9	·	·	31%[activator]
CCCSc1nc2ccccc2c(=O)n1-c1ccccc1OC	-6.6%	-7	-1.0%	·	1.5	·	·
COc1cc2c(cc1OC)C13CCN4C=C5CCOC6CC(=O)N2C1C6C5CC43 (stereo not drawn)	-29%	-7	-2.3%	·	2.3	·	·
N#CC(C#N)=NNc1ccc(-n2ccc(C(F)(F)F)n2)cc1	·	13	?	0.1	4.2	18	-4%
COC(=O)C1=C(c2ccc3ccccc3c2)C[C@@H]2CC[C@H]1N2C(=O)NCCNC(C)=O	-2.5%	20	0.3%	·	-0.1	5	·
CC(C)Oc1cc(-n2c(=S)[nH]c3ccccc3c2=O)c(Cl)cc1Cl	-8.6%	13	?	1.5	1.3	·	12%
